# PrP UTR inh = inhibition of PrP 5' UTR reporter expression. cell-based PrP 5' UTR mRNA reporter, plate reader. inhibition, % (concentration not given with the values). 340,000 tested, 0.35% active. AID 488862;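 active means every replicate at 50% or more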;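 further: 0 = median of the neutral control wells; tested in H4 reporter cells; numbers are from one replicate; inactives centre near -14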
# BJeLR viability = BJeLR cell viability loss. BJeLR (HRASV12) viability, CellTiter-Glo ATP luminescence, 48 h; reference of the scale not given here. inhibition, % (no concentration beside the values). 300,000 tested, 0.17% active;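 active means replicate mean above 50%; inconclusive means above 50% but judged a plate artefact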;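 further: 50 nL library stock added to about 25 µL; numbers are from one replicate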
# Mtb hypoxia inh = Mtb hypoxia fluorescent reporter inhibition; 300,000 tested, 0.1% active; fluorescence inhibition, % (concentration not given with the values); M. tuberculosis hypoxia-regulated fluorescent reporter, fluorescence; AID 1159583;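 active means 35 to 45% if threefold the growth effect, above 45% if 1.5-fold the growth effect; inactive means the rest, general growth blockers included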;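 further: wells of about 50 µL received 100 nL stock; 0% = vehicle wells and 100% = reference inhibitor wells; whole bacteria with a GFP reporter of the hypoxia response; strong numbers were not always called active; many hits fall short of the cut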
# ugtP null kill = kills S. aureus RN4220 lacking UgtP; growth inhibition, % (test concentration not listed); S. aureus RN4220 ugtP deletion, OD600 growth, 16 h; some inactives read as strong as hits; 330,000 tested, 0.54% active; AID 1259309;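 active means z-score under -3 and OD600 up to 0.15 on both plates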;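 further: plate controls were untreated wells for no effect and antibiotic for full effect; wells of about 80 µL received 100 nL stock; the first replicate is given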
# Autofluor counter = counter-screen for toxin protease inhibitors: compound fluorescence | compound autofluorescence counterscreen, microsphere flow cytometry; active compounds read high | fluorescence intensity (test concentration not listed) | 360,000 tested, 3.1% active | AID 624483;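 active means at least 3 SD above the mean of all compounds, about 16000 in these data; inconclusive means too few beads counted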;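 further: 100 nL of 1 mM stock went into each well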
# Sa RN4220 lethal = S. aureus RN4220 growth inhibition. 330,000 tested, 0.33% active. inhibition, % (no concentration beside the values). OD600, 16 h;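 active means z-score of -3 or lower and OD600 up to 0.18 on both plates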;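 further: plate controls were untreated cells for no effect and reference antibiotic for full effect; stock transfer was 100 nL into about 80 µL; one replicate is shown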
# Mtb hypoxia inh growth = second read-out of Mtb hypoxia inh, no call of its own (marks repeat the call); growth inhibition, %; measured here: M. tuberculosis growth (absorbance);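 0% = vehicle and 100% = reference antibiotic; read after six days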
# Numbers without * were called inactive; ? = inconclusive; . = not tested or not shown. An unsorted share of the library. About 4% of those tested had a hit in this group.
# Every second line gives: ugtP null kill	Sa RN4220 lethal	Mtb hypoxia inh	PrP UTR inh	Mtb hypoxia inh growth	BJeLR viability	Autofluor counter
- CCN(CC)P(=O)(Oc1cccc(C)c1)N(CC)CC
 : -7	4.1	13	-14	16	-12	4412
- COc1ccc(COC(=O)Nc2c(SC)nsc2SC)cc1
 : 3	8.6	16	-70	9	-1	4213
- Cc1cc(-n2[nH]c(C)c(C)c2=O)nc(-c2ccccc2O)n1
 : 12	19	19	-12	-6	-1	2560
- CCc1nc(C)cn1S(=O)(=O)c1ccc(Br)cc1
 : -3	4.5	-6	-33	-3	0	3746
- Cc1ccc(O)c(NC(=O)CSc2n[nH]c(-c3ccccc3)n2)c1
 : -1	11	14	-20	8	-15	5980
- Cc1nn(C)c(C(=O)NNC(=O)Nc2cccc(C(F)(F)F)c2)c1Cl
 : 1	4.7	5	1	2	-6	4217
- Cc1ccc(-n2nnc3c(=O)n(Cc4ccccn4)cnc32)cc1C
 : 6	2.3	8	-11	11	3	4423
- CNC(=S)N/N=C/c1cn(Cc2c(F)cccc2Cl)c2ccccc12
 : .	.	.	-16	.	5	2008
- CCC(Oc1ccc2c(c1)C(=O)CC(C)(C)O2)C(=O)NCCN1CCCCCC1 (centres undefined)
 : 6	1.4	18	-11	10	2	5231
- CCCN(CCC)CCNS(=O)(=O)c1ccc2c(c1)oc(=O)n2C
 : -1	-0.8	3	3	9	6	22046*
- O=C(NCCc1c[nH]c2ccccc12)c1ccc2c(c1)OCO2
 : -5	1.6	13	-67	9	2	3936
- Cn1c(=O)[nH]c(=O)c2c1nc(NCCCO)n2CCOc1ccccc1
 : -68	8.3	19	-13	8	6	4296
- CC(=O)OC[C@H]1COc2ccc3ccccc3c2[C@H]1N(C)C(C)=O
 : 7	11	5	1	-2	-2	4315
- CCN1CCCn2c1nc1c2c(=O)n(C)c(=O)n1C
 : 13	0.4	11	-23	9	12	2183
- COc1ccc(C=NOC/C(O)=C(\C#N)c2nc3ccccc3[nH]2)cc1OC
 : -2	0.3	-8	.	3	.	.
- CCOc1ccc(-n2cnnn2)cc1S(=O)(=O)NCc1ccccc1
 : 5	4.7	11	-31	-3	1	13747
- O=C(NCc1cccnc1)c1cnc2sccn2c1=O
 : 10	3.9	7	-55	8	2	4641
- C/C(C=NNC(=O)c1nnn(-c2nonc2N)c1CN(C)C)=C\c1ccco1
 : 1	4.0	5	.	-6	.	.
- CCN(CC)S(=O)(=O)c1ccc(NN=C(C)c2cccnc2)nc1
 : 6	2.3	-5	.	-3	.	.
- COc1ccccc1-c1nnc(N)s1
 : 7	4.5	-2	-30	6	-9	3453
- C#CCOc1ccc(/C=C2/C(=O)NN(c3ccccc3)C2=O)cc1OC
 : 9	3.2	9	-17	8	3	3963
- Cc1cc(C(=O)NN=C/C=C/c2ccccc2[N+](=O)[O-])c(C)o1
 : -1	0.1	4	.	2	.	.
- O=C(NN=C1CCCCCC1)C(=O)Nc1cccc(Br)c1
 : 12	5.0	4	-49	0	4	8154
- CCN=c1scc(C)n1/N=C/c1cc(Br)c(O)c(Br)c1
 : .	.	.	-12	.	2	4215
- CCN(C(=O)C(C)N1C(=O)/C(=C/c2ccco2)SC1=S)C1CCS(=O)(=O)C1 (centres undefined)
 : .	.	.	10	.	7	4256
- COc1ccccc1N(CC(O)Cn1ccnc1C)S(=O)(=O)c1ccc(C)cc1 (centres undefined)
 : 4	4.0	8	-8	13	-1	3716
- Brc1ccc(-c2nnc3n2CCCCC3)cc1
 : 2	3.7	.	-20	.	-2	2672
- CCOC(=O)c1ccc(NC(=O)NCCN2CCCCC2)cc1
 : 0	4.2	3	-18	4	-1	12560
- NC(=O)CSc1nc(-c2ccccc2)nc2c1CCCC2
 : 7	1.3	6	-11	7	-6	3912
- CC(C)CCn1c(=O)c2ccccc2n2c(CCC(=O)NCC3CCCO3)nnc12 (centres undefined)
 : 4	1.8	9	-6	3	-5	5094
- COc1ccc(S(=O)(=O)N(CCc2ccccc2)CC(=O)NN=Cc2ccc3c(c2)OCO3)cc1
 : -3	-1.8	17	.	17	.	.
- NC(=O)C1CCN(c2oc(-c3ccc(F)cc3)nc2S(=O)(=O)c2ccccc2)CC1
 : 3	1.7	10	-10	11	.	8800
- COc1ccc(OC)c(N(C(=O)c2ccco2)C(C(=O)NC2CCCC2)c2cc(OC)c(OC)c(OC)c2)c1 (centres undefined)
 : 2	5.9	10	-24	3	-7	3368
- CCCc1nnc(NC(=O)C(C)N2C(=O)C3C4C=CC(C4)C3C2=O)s1 (centres undefined)
 : 5	0.6	1	-24	7	0	4236
- CC(C)(C)NC(=O)Cn1c(SCC(=O)N2CCCCCC2)nc2ccccc21
 : 5	3.7	11	-22	8	13	10527
- Cc1cc(C)nc(SCc2nnc(SCC(=O)OC3CCCCC3)o2)n1
 : -2	2.1	-6	0	2	0	?
- CCc1cc(OCCOCCN(C)C)ccc1Cl
 : 4	2.7	11	-4	11	-4	2531
- CCc1ccc2[nH]c(=O)c(CN(Cc3nnnn3C3CCCC3)C3CCCCC3)cc2c1
 : -16	2.2	-8	-37	-3	-8	5797
- Cc1oc(-c2ccccc2F)nc1CS(=O)CC(=O)NC1CCCCC1 (centres undefined)
 : -1	4.5	5	-21	2	7	5137
- COc1ccc(/C=N/NC(=O)c2ccccc2)cc1CN1CCN(c2ccc(F)cc2)CC1
 : .	.	.	-18	.	1	2949
- Cc1noc(C)c1COC(=O)c1cc(S(=O)(=O)N2CCOCC2)ccc1Cl
 : 13	5.4	6	-4	7	.	2758
- Cc1cnc(C(=O)N2CCCC(C(=O)c3ccc(C(F)(F)F)cc3)C2)cn1 (centres undefined)
 : 5	0.5	0	-26	2	2	4720
- CCn1c(SCC(=O)OCc2ccccc2)nnc1-c1ccco1
 : 4	5.3	1	-7	-3	3	7526
- N#CC1C(=O)NC(=O)CC12CCCCC2 (centres undefined)
 : 2	1.8	13	-11	6	.	3459
- CCN(CC)c1ccc(/C=N/NS(=O)(=O)c2cccc([N+](=O)[O-])c2)cc1
 : .	.	.	-9	.	-1	2373
- NS(=O)(=O)c1ccc(CCN=Cc2ccccc2O)cc1
 : 3	3.2	14	-9	11	0	2532
- O=C(Nc1ccc(S(=O)(=O)NCc2cccnc2)cc1)c1ccco1
 : -4	5.7	9	-24	12	16	4153
- O=C(Cc1ccc([N+](=O)[O-])cc1)N1CCCc2ccccc21
 : 6	7.8	-1	-2	2	5	4595
- C[C@]12C[C@@H](O)[C@H](O)CC1=CCC1C2CC[C@@]2(C)C1CC[C@@H]2O (some centres undefined)
 : 13	0.1	5	11	3	.	3078
- O=P(O)(O)/C=C(\Cl)c1ccccc1
 : 3	-1.8	3	-12	5	-3	3362
- Cc1cccc(N/N=C/c2ccc(O)c(O)c2O)c1
 : .	.	.	-7	.	3	4486
- CCOC(=O)c1ccccc1OC(=O)Oc1ccccc1C(=O)OCC
 : 8	11	7	-21	2	.	4001
- COC(=O)c1sc(=S)n(Cc2ccccc2)c1C
 : 4	3.2	18	-8	5	-2	.
- O=C(OCc1cc2ccccc2[nH]c1=O)c1cccc([N+](=O)[O-])c1
 : -5	1.5	-2	-14	-3	-1	3616
- CCOC(=O)NC1(NCC(C)C)Oc2ccccc2O1
 : 4	3.0	10	1	1	0	16411*
- O=C(c1nc[nH]c1C(=O)N1CCc2ccccc2C1)N1CCc2ccccc2C1
 : -1	1.9	-3	2	2	.	4151
- Cc1ccc(S(=O)(=O)N2CCC(C(=O)NCCC3=CCCCC3)CC2)c(C)c1
 : 2	1.6	-4	-17	-9	4	?
- O=C(c1ccccc1)N1CCN(C(=O)c2cc3ccccc3o2)CC1
 : -12	11	15	-13	13	3	3035
- Cc1ccc(NC(=O)C(=O)NC2CCCCC2)cc1
 : -2	1.0	.	-84	.	2	2636
- CCOC(=O)C1(CCc2ccccc2)CCN(C(=O)CCc2cnn(C)c2)CC1
 : -2	4.2	3	-22	3	5	3141

# Later entries
# Every second line gives: ugtP null kill	Sa RN4220 lethal	Mtb hypoxia inh	PrP UTR inh	Mtb hypoxia inh growth	BJeLR viability	Autofluor counter
- Cc1ccc2[nH]c3c(=O)n(Cc4ccncc4)cnc3c2c1
 : -3	4.6	12	-10	1	14	2809
- CN(CC(=O)Nc1ccc(Cl)c(Cl)c1)C(=O)c1cccc2cccnc12
 : 0	1.3	5	-22	-1	.	6152
- COc1ccccc1CCC(=O)OCC(=O)Nc1ccc2[nH]c(=O)[nH]c2c1
 : 9	4.1	0	-1	-3	3	.
- O=C(Cc1ccc([N+](=O)[O-])cc1)N1CCN(c2ccc([N+](=O)[O-])cc2)CC1
 : 15	2.3	5	6	-1	16	3168
- CN(C(=O)c1cccc(NC(=O)Cc2ccc(NC(=O)C3CCN(C(=O)C4CCC4)CC3)cc2)c1)C1CCCCC1
 : 8	3.3	1	-13	1	.	3911
- COc1ccc([N+](=O)[O-])cc1NC(=O)CCN1CCOCC1
 : 17	4.0	-3	-28	-2	-5	3675
- COc1ccc(C(=O)NC(=S)N2CCCCC2)cc1
 : 5	3.3	-5	-5	-9	7	8723
- C/C(=N\NC(=O)CCC(=O)O)c1c(-c2ccccc2)c2cc(Br)ccc2[nH]c1=O
 : .	.	.	-43	.	11	4977
- CCOc1ccc(NC(=S)NNC(=S)Nc2cccc(C(F)(F)F)c2)cc1
 : -11	-1.8	1	-10	14	0	6176
- CCC(C)NC(=O)COC(=O)Cc1sc(N)nc1-c1ccc(C)cc1 (centres undefined)
 : -4	-2.2	-4	-10	3	-8	2565
- CSCC[C@H](N)C(=O)N1CCC(C(=O)N[C@H](C(=O)NCc2ccccc2F)C(C)C)CC1
 : -11	4.9	.	-13	.	-4	5402
- CN(C)/C=C1\C(=O)NN=C1c1ccccc1
 : 7	2.7	7	-30	-1	5	1988
- COc1ccc(CCNC(=O)C2CCN(S(=O)(=O)c3ccc(C)cc3)CC2)cc1OC
 : 13	3.3	3	-6	0	-2	3222
- CNC(=O)c1ccc(OCc2ccccc2)c(OC)c1
 : -4	0.9	.	-6	.	.	2855
- CN1CC2=Cc3ccccc3OC23Oc2ccccc2C=C3C1
 : -4	-0.9	.	-24	.	-3	5522
- COc1cccc(N2C(=O)Nc3ccc(Br)cc3C2(O)C(=O)NCCCN(C)C)c1 (centres undefined)
 : 4	2.2	13	-15	0	-15	3712
- O=C(/C=C/c1ccc(Br)cc1)NCCCn1ccnc1
 : 7	4.5	-1	-20	-1	-7	3292
- Cc1ccc(S(=O)C(c2ccccc2)c2ccccc2)cc1 (centres undefined)
 : 2	4.0	5	-18	12	.	3567
- Cc1ccc(C)c(NC(=O)CN(C)C(=O)[C@@H](NC(N)=O)C(C)C)c1
 : 2	5.4	-5	-38	-5	6	3295
- O=C(Nc1cccc(Br)c1)c1ccc2nc(N3C(=O)CCC3=O)sc2c1
 : -16	0.1	-1	-23	8	-6	5778

# The final 3 records of the section before are carried over, then new ones follow:
# Every second line gives: ugtP null kill	Sa RN4220 lethal	Mtb hypoxia inh	PrP UTR inh	Mtb hypoxia inh growth	BJeLR viability	Autofluor counter
- Cc1ccc(S(=O)C(c2ccccc2)c2ccccc2)cc1 (centres undefined)
 : 2	4.0	5	-18	12	.	3567
- Cc1ccc(C)c(NC(=O)CN(C)C(=O)[C@@H](NC(N)=O)C(C)C)c1
 : 2	5.4	-5	-38	-5	6	3295
- O=C(Nc1cccc(Br)c1)c1ccc2nc(N3C(=O)CCC3=O)sc2c1
 : -16	0.1	-1	-23	8	-6	5778
- CSc1nnc(-c2ccccc2Cl)o1
 : -10	7.4	8	-36	7	7	2705
- CCOC(=O)N1CCN(C(=O)COc2ccc(S(=O)(=O)NCC(C)C)cc2C)CC1
 : -3	1.8	4	-3	4	9	21204*
- COc1ccc(/C=C(/NC(=O)c2ccccc2)C(=O)N2CCC(C)CC2)cc1
 : -13	-2.0	-2	-4	-7	-7	4127
- N/C(=N\OC(=O)C12CC3CC(CC(C3)C1)C2)c1ccccn1
 : -7	5.5	7	-127	2	-5	2121
- Cc1ccc(S(=O)(=O)N2CCCC2)cc1C(=O)NCCOc1ccccc1
 : 9	2.0	-9	-16	1	.	?
- COc1ccc(C(C(=O)NCc2ccccc2)N(Cc2cccnc2)C(=O)c2snc(C(N)=O)c2N)cc1OC (centres undefined)
 : .	.	.	-36	.	2	3818
- Cc1cccc(NC(=O)CSc2nc3[nH]ncc3c(=O)[nH]2)c1C
 : .	.	.	-9	.	1	2376
- O=C(Cc1c(Cl)cccc1Cl)NN=Cc1cccnc1
 : 3	1.2	0	.	4	.	.

# High-throughput results from PubChem.
